MgrA-DNA mod = S. aureus MgrA activity modulators, primary screen, biochemical, S. aureus Newman, fluorescence polarization | MgrA-DNA binding | inhibition, %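 (about 10 µg/mL by stock and volumes)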 | 0.13% of 84,000 active | AID 602314, 2012;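 active means above 50% in either of two replicates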;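 further: 0% = protein plus DNA without compound and 100% = DNA alone without protein; higher means less MgrA bound to DNA so lower polarization; one replicate is shown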
Sa helicase inh = inhibitors of S. aureus replicative helicase, primary screen, biochemical, fluorescence unwinding readout; replicative DNA helicase (DnaC/DnaB), Staphylococcus aureus; purified S. aureus helicase, fluorescence unwinding assay; about half of the hits fall short of the stated cut; inhibition, %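 (tested at about 80 µM)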; 0.05% of 120,000 active; AID 485395, 2010;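 active means both duplicates at 50% or more, or one of them with a favoured structure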;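 further: 0% = mean of negative control wells and 100% = mean of positive control wells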
Numbers without * were called inactive; · = not tested or not shown.

structure	Sa helicase inh	MgrA-DNA mod
CCc1ccccc1NC(=O)Cn1c(=O)n(CC2CCCO2)c(=O)c2ccccc21 (configuration not stated)	-17	·
N#Cc1ccc(NC(=O)COC(=O)C23CC4CC(CC(C4)C2)C3)cc1	-11	·
COC(=O)c1ccc(Br)cc1	·	-2.5
COc1cccc(OC)c1COC(=O)Nc1c(-c2ccccc2Cl)noc1C	-20	·
CC(=O)Nc1scc(C)c1-c1nc2ccccc2s1	·	-1.6
Cc1ccc(N(C)C(=O)CCS(=O)(=O)c2ccc3c(c2)oc(=O)n3C)cc1	3	·
Oc1[nH]c2ccccc2c1C=Nc1ccc(Br)cc1	33	·
CC(C)(C)OC(=O)N1CCCC1C(=O)O (configuration not stated)	24	·
COc1ccc(-c2nc(SC(C)C(=O)Nc3ccnn3C(C)C)n[nH]2)cc1 (configuration not stated)	9	·
CCN(CC)c1ncnc2c1cnn2-c1cccc(C)c1	-16	·
CCOC(=O)C1=C(C(=O)c2ccccc2)C2(C(=O)Nc3ccccc32)C(C#N)=C(N)O1 (configuration not stated)	2	-1.8
CC(C)CN(CC(C)C)S(=O)(=O)c1cc(Cl)ccc1Cl	9	-0.4
O=C(c1ccc(N2CCCc3ccccc32)s1)N1CCCC1	7	·
COc1ccc(Nc2ncc(C(=O)O)c3ccccc23)cc1	10	·
Cc1oc2c(F)c(F)c(F)c(F)c2c1C(=O)O	8	·
CCCCCCCCCCC/C=C\C(C)(C)/C=C\CCCC(=O)O	·	0.0
COC(=O)c1cc(CN2CCNC(=O)C2)oc1C	-13	·
COc1ccc(/C=C2/SC(=S)N(CCC(=O)N3CCN(C4=NC(=O)/C(=C\c5ccc(C)cc5)S4)CC3)C2=O)cc1	·	-0.7
CCCN1C(=O)SC(CC(=O)Nc2cccc3ccccc23)C1=O (configuration not stated)	-1	-1.9
CC1=C(C(=O)OCc2ccc3c(c2)OCO3)C(c2cccc(Oc3ccccc3)c2)NC(=O)N1 (configuration not stated)	·	1.5
COC(=O)C(Cc1c[nH]c2ccccc12)N=Cc1cc(Cl)cc(Cl)c1O (configuration not stated)	10	2.1
Brc1ccc2ncnc(N3CCOCC3)c2c1	12	·
Nc1cc(=O)[nH]c(SCC(=O)N(c2ccccc2)c2ccccc2)n1	1	1.8
CCOC(=O)N1CCC(NC(=O)c2c(C)nn(-c3ccccc3)c2-n2cccc2)CC1	0	-0.2
Nc1cc(=O)[nH]c(SC/C=C/c2ccccc2)n1	10	·
CN(C)c1ccc(C(=O)OCCOc2ccccc2F)cc1	-10	·
O=c1nc(-c2ccccc2)cc(-c2ccc(Br)cc2)[nH]1	·	0.7
NC(=O)COc1ccc(C2=Nc3ccccc3NC(c3ccccc3)C2)cc1 (configuration not stated)	·	-1.1
CN1C(=O)C2(c3ccccc31)C(C(=O)N1CCN(c3cccc(C(F)(F)F)c3)CC1)CC1CCCN12 (configuration not stated)	-4	·
O=C(Oc1ccccc1)n1c(=O)oc2ccc(Cl)cc21	5	1.2
O=C(NN1C(=O)C2C3c4ccccc4C(c4ccccc43)C2C1=O)C1CC1 (configuration not stated)	-6	1.8
COc1ccc(Nc2nc(NN)nc(N3CCOCC3)n2)cc1	·	-1.2
CN(CN1C(=O)c2cc(Cl)c(Cl)cc2C1=O)C1CCCCC1	8	·
COc1ccccc1-c1ccc(=O)n(CC(=O)NC(C)(C)C)n1	11	-0.2
Cc1ccc(N(C)S(=O)(=O)c2c(C)[nH]c(C)c2C(=O)N2CCCC2)cc1	10	·
O=C(c1ccccc1)c1nn(-c2ccc(C(F)(F)F)cc2)ccc1=O	·	-0.9
Cc1ccc(S(=O)(=O)N2CCCC(NC(=O)NCc3ccco3)C2)cc1 (configuration not stated)	4	-1.0
Cn1cnnc1Sc1ccc(Cl)cc1NC(=O)CN1C(=O)C2CC=CCC2C1=O (configuration not stated)	1	·
Cc1sc(NC(=O)CN2C(=O)CCC2=O)c(C(N)=O)c1C	19	·
COc1ccc2oc(C(=O)OCC(=O)Nc3ccccc3SCC#N)c(C)c2c1	-80	·
CCOC(=O)c1cncc(C(=O)OCC)c1	·	-0.9
CCN(C(=O)c1cccnc1SCc1c(C)noc1C)c1nc2c(C)cccc2s1	14	·
CC(CNC(=S)Nc1cccc(Cl)c1)CSc1ccc(Cl)cc1 (configuration not stated)	4	1.1
CCOC(=O)c1c(N)sc2c(OC)c(Br)ccc12	-2	-1.3
COc1ccccc1N1CCN(CCCNC(=O)CCc2c(C)nc3c(c2C)c(=O)n(C)c(=O)n3C)CC1	-10	·
Cn1c(=O)c(C(=O)CSc2nncn2-c2ccccc2)c(N)n(Cc2ccccc2)c1=O	-12	·
CC(NC(=O)Cn1cc(C(=O)C2CCCCC2)c2ccccc21)c1ccccc1 (configuration not stated)	8	-0.9
NNC(=O)CNC(=O)c1cccc2ccccc12	17	·
CC(=O)NC1=NN(C(C)=O)C(c2ccco2)S1 (configuration not stated)	4	·
CCC1(C)NC(=O)N(NC(=O)Cn2cnc3c2c(=O)n(C)c(=O)n3C)C1=O (configuration not stated)	7	·

Some of these compounds in order of count of non-hydrogen atoms, high to low:
structure	Sa helicase inh	MgrA-DNA mod
COc1ccccc1N1CCN(CCCNC(=O)CCc2c(C)nc3c(c2C)c(=O)n(C)c(=O)n3C)CC1	-10	·
CC(NC(=O)Cn1cc(C(=O)C2CCCCC2)c2ccccc21)c1ccccc1 (configuration not stated)	8	-0.9
Cc1ccc(N(C)C(=O)CCS(=O)(=O)c2ccc3c(c2)oc(=O)n3C)cc1	3	·

Ordered by the number under MgrA-DNA mod (rising): 4 of the compounds above.
structure	Sa helicase inh	MgrA-DNA mod
NC(=O)COc1ccc(C2=Nc3ccccc3NC(c3ccccc3)C2)cc1 (configuration not stated)	·	-1.1
CCOC(=O)c1cncc(C(=O)OCC)c1	·	-0.9
O=c1nc(-c2ccccc2)cc(-c2ccc(Br)cc2)[nH]1	·	0.7
O=C(Oc1ccccc1)n1c(=O)oc2ccc(Cl)cc21	5	1.2

Other structures
structure	Sa helicase inh	MgrA-DNA mod
NS(=O)(=O)c1ccc(CNC(=O)c2ccncc2)cc1	-2	·
CCCCOc1nc2ccccc2nc1C(C#N)C(=O)OCC (configuration not stated)	12	·
Cc1ccc(CN(C)CC(=O)Nc2c(C(C)C)cccc2C(C)C)o1	-15	·
CCn1c(COc2ccccc2OC)nnc1SCC(=O)c1c(C)n(C)c2ccccc12	-17	0.8
CCc1nn2c(C)cc(C)nc2c1C	-7	·
CCc1cccc(N2C(=O)Nc3ccccc3N2O)c1	5	·
CC(c1ccco1)N(C(=O)C1CC1)c1ccccn1 (configuration not stated)	-14	-1.1
CC(=O)NC(C)c1ccccc1 (configuration not stated)	·	-3.9
CCCS(=O)(=O)c1c(S(=O)(=O)CCC)c2cc(CC)ccn2c1C(=O)c1ccc(F)cc1	12	-1.6
CCOC(=O)c1oc2cc(OCc3ccccc3)ccc2c(=O)c1-c1cnn(-c2ccccc2)c1	·	2.2
O=C(CNc1ccc(F)cc1F)N1CCN(S(=O)(=O)c2ccccc2)CC1	0	·
CCC(CO)NCC(O)c1ccccc1 (configuration not stated)	4	·
NC(=O)COc1cccc(-n2cnnn2)c1	-5	1.1
O=C(OCC1CC1)c1cc2ccccc2o1	5	·
C=CCC(C)(NCc1ccccc1)c1ccco1 (configuration not stated)	-17	-2.3
O=C(COc1ccc(Br)cc1Br)NCCc1ccccc1	11	·
O=C(/C=C/c1ccccc1)OCC(=O)c1ccc(-n2nncc2-c2ccco2)cc1	6	·
O=C(CCc1ccccc1)N/N=C/c1ccco1	-4	5.0
CC(C)(C)N=c1scc(-c2ccccc2)n1-c1ccccc1	-16	-0.8
O=C1CSc2ccc(C(=O)N3CCN(c4cccc(C(F)(F)F)c4)CC3)cc2N1	13	1.2
CC1=C(C(=O)OCc2ccc3c(c2)OCO3)C(c2ccc(Br)cc2)NC(=O)N1 (configuration not stated)	·	1.6
O=C(NC(=S)N1CCSCC1)c1ccccc1	·	0.7
CN1C(=O)SC(N(CC(N)=O)c2ccccc2)C1=O (configuration not stated)	-2	-1.1
C=CCSc1n[nH]c(-c2ccc(C(F)(F)F)cc2)n1	·	-2.0
CN1C(=O)CC(NCCc2ccc(S(N)(=O)=O)cc2)C1=O (configuration not stated)	-1	-1.1
CCc1ccc(N(Cc2cc(=O)n3ccccc3n2)C2=NC3CS(=O)(=O)CC3S2)cc1 (configuration not stated)	8	·
CCOC(=S)SCc1c(F)cccc1Cl	·	-0.8
CC(=O)Oc1ccccc1C(=O)N1CC(C)CC(C)C1 (configuration not stated)	4	-8.7
N#Cc1ccc(OCC(=O)c2ccc3c(c2)OCO3)cc1	-8	·
O=C(Nc1nc2ccccc2s1)C(F)(F)F	22	-1.9
CCOC(=O)c1oc2ccc(S(=O)(=O)N3CCOCC3)cc2c1C	6	-0.8
COC(=O)c1ccc(C2SCC(=O)N2CCC(C)C)cc1 (configuration not stated)	0	·
Cc1cccc(NC(=O)c2cc(=O)[nH]c3ccccc23)c1	10	-0.8
Cc1ccc(Oc2cc(C#N)c3ccccc3n2)cc1C	-2	-1.5
CCCC(=O)Nc1sc(C)c(C)c1C#N	2	9.0
COC(=O)c1ccc(Cl)cc1NS(=O)(=O)c1ccc(OC)c(OC)c1	·	-1.4
Cc1nc2ccccc2n1S(=O)(=O)c1cccc(C(F)(F)F)c1	4	·
Cc1csc(SCC(=O)N(C)Cc2ccccc2C)n1	9	·
Cc1ccc(NC(=O)/C(C#N)=C/c2cn(CC(=O)NCc3ccco3)c3ccccc23)c(C)c1	1	-1.8
O=C(CN1c2ccccc2S(=O)(=O)c2ccccc21)Nc1cccnc1	-11	·
O=C(O)C1Cc2[nH]cnc2C(c2ccc(F)cc2)N1 (configuration not stated)	-1	·
Cc1cc(C)c2c(n1)SCC(=O)N2CCCC(=O)NCc1cccc(Br)c1	7	·
CN(C)C(=O)Cn1c(-c2ccc(F)cc2)ccc(C#N)c1=O	3	-0.9
O=C(O)CCN1CCn2c1nc1ccccc12	7	-5.0
CCOC(=O)c1c(C)[nH]c(C)c1S(=O)(=O)NCC(=O)Nc1ccc(Cl)c(C(F)(F)F)c1	-7	·
S=C(SCc1ccc(CSC(=S)N2CCOCC2)cc1)N1CCOCC1	-3	-2.1
CCOc1ccc(C(=O)Cc2ccc3oc(C(=O)O)cc3c2)c(O)c1	10	·
Cc1oc(C(C)(C)C)cc1C(N)=O	·	-1.5
O=C1c2ccccc2C(=O)N1CCc1nc(-c2cccnc2)no1	-1	1.2
Nc1ccc(Oc2c(Cl)cccc2Cl)nc1	·	-0.2

Next part
structure	Sa helicase inh	MgrA-DNA mod
S=C(Nc1ccccc1)N1CCc2ccccc21	25	·
O=C(c1cc(Cl)cc(Cl)c1)c1cc(Cl)cc(Cl)c1	·	-1.8
COc1ccc2[nH]c(=O)c(C(=O)O)cc2c1	1	0.8
Cc1c(C(=O)Cc2ccccc2)n(C)c2ccccc12	3	-1.3
CCNc1nc(NCC)n2c(SCC(=O)c3ccc(C(C)(C)C)cc3)nnc2n1	·	2.8
O=C(O)/C=C/C(=O)Nc1cccc(NC(=O)/C=C/C(=O)O)c1	36	·
Cc1nc2c(-c3ccccc3)c(C)nn2c(C)c1CC(=O)NCCCN1CCCC1=O	-2	·
O=C(O)C1Cc2ccccc2CN1C(=O)c1ccco1 (configuration not stated)	6	-2.0
COCC(C)N=C1NN=C(c2cc(C)n(CC3COc4ccccc4O3)c2C)CS1 (configuration not stated)	7	·
N#CC(C#N)=C(N1CCOCC1)C(F)(F)F	-4	2.2
CC(C)c1ccc(C(C)N)cc1 (configuration not stated)	-15	·
CC1CCCN(S(=O)(=O)c2ccc(S(=O)(=O)N3CCN(C=O)CC3)cc2)C1 (configuration not stated)	-8	0.2
COc1cc(C2CC(=O)N(c3cc(C)on3)C(=O)C2)cc(OC)c1OC	·	2.3
CCC(=O)N(c1nnc(SCc2csc(N(C(C)=O)c3ccccc3)n2)s1)C1CC1	-3	·
CN(C)c1nc(-c2ccccc2)nc(Nc2cccc(C(F)(F)F)c2)c1C#N	·	-0.1
O=C(c1ccc2c(c1)OCCCO2)c1cccs1	15	0.6
CN1CCN(CC(O)COCCC23CC4CC(CC(C4)C2)C3)CC1 (configuration not stated)	0	-1.7
CC(C)CCNC(=O)c1cnn2c(C(F)(F)F)cc(-c3ccco3)nc12	11	5.8
CC1Cc2cc(S(=O)(=O)Nc3ccccc3N3CCN(C)CC3)ccc2N1C(=O)C1CC1 (configuration not stated)	-19	·
CCc1ccc(NC(=O)CCNC(=O)Cn2ccc3ccccc3c2=O)cc1	9	0.2
O=C(NC1CCCCCC1)c1cn(-c2ccc(F)cc2)nn1	-25	·
Cc1cccc(N(C(=O)c2ccccc2)C2=NCC(C)S2)c1 (configuration not stated)	5	-2.9
CCN(C(=O)C1CCCN1S(=O)(=O)c1cccc2nsnc12)c1ccccc1 (configuration not stated)	9	·

Look-ups from the results shown:
For Sa helicase inh, `Cc1c(C(=O)Cc2ccccc2)n(C)c2ccccc12` is entered as 3
For MgrA-DNA mod, `O=C(c1ccc2c(c1)OCCCO2)c1cccs1` is entered as 0.6
For MgrA-DNA mod, `CN(C)c1nc(-c2ccccc2)nc(Nc2cccc(C(F)(F)F)c2)c1C#N` is entered as -0.1
For Sa helicase inh, `O=C(O)C1Cc2ccccc2CN1C(=O)c1ccco1` (configuration not stated) is entered as 6
For Sa helicase inh, `O=C(O)/C=C/C(=O)Nc1cccc(NC(=O)/C=C/C(=O)O)c1` is entered as 36

Screening data (PubChem BioAssay)

These rows are one share of the data; rates above refer to the full screens.
